Compound activity (PubChem BioAssay)
AF4-AF9 inh = inhibitors of AF4 peptide binding to AF9, primary screen, biochemical, AlphaScreen, biotin-AF4 peptide, FLAG-AF9, single point. inhibition, % at 10 µM. 350,000 tested, 0.47% active;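 active = every replicate reaching a set inhibition limit, whatever the replicate mean, cut at about 25% in these data; inconclusive = mean inhibition reaches that limit but some replicates miss it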;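 also: 0% = plate neutral control median and 100% = total signal loss; the record names both 10 and 1 µM as test concentration; the first replicate is given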
Target sequence (P42568 whole entry, looked up): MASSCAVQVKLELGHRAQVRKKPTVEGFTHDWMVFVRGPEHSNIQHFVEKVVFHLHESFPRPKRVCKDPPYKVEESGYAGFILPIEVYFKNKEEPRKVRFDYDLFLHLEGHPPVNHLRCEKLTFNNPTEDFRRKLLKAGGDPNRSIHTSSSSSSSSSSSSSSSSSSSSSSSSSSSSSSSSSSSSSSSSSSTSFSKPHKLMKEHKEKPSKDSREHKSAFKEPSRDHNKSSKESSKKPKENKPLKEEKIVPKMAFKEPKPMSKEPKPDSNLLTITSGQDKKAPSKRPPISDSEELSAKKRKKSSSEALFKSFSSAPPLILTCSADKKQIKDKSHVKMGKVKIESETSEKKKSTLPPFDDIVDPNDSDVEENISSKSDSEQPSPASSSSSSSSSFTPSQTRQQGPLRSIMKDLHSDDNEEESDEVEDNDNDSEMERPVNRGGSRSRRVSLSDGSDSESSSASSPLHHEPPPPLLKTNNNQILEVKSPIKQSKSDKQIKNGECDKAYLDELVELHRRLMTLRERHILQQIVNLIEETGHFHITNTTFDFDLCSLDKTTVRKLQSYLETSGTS
Starred values were filed as active, the others as inactive; ? = inconclusive; & = joins results of further samples. These rows are one share of the data; rates above refer to the full screens.

AF4-AF9 inh	SMILES
7.9	C[C@H](CO)N1C[C@H](C)[C@@H](CN(C)CC2CCCCC2)Oc2ccc(NC(=O)Nc3ccc(F)cc3)cc2CC1=O
-1.1	CCNC(=O)C[C@@H]1CC[C@H]2[C@@H](COC[C@H](O)CN2C(=O)C2CCCC2)O1
-1.9	N#Cc1ccc(Nc2nc(-c3ccccc3)cs2)cc1
-1.2	O=C(c1cnccn1)N1CC2(C1)[C@H](c1ccccc1)[C@H](CO)N2C(=O)c1ccccc1
9.3	C[C@H](CO)N1C[C@H](C)[C@@H](CN(C)Cc2ccc(-c3ccccc3)cc2)Oc2ccc(NC(=O)C3CC3)cc2CC1=O
-4.1	CCNC(=O)C[C@@H]1C=C[C@@H](NC(=O)NC2CCCCC2)[C@@H](CO)O1
-0.2	C[C@@H]1CN([C@H](C)CO)C(=O)c2cc(NC(=O)C3CC3)ccc2O[C@H]1CN(C)S(=O)(=O)c1cccs1
-1.8	COc1ccc(-c2ccc3n(c2=O)C[C@H]2[C@H](CO)[C@@H](C(=O)N4CCOCC4)[C@@H]3N2C)cc1
-3.5	COc1ccc(CN(C)C[C@@H]2Oc3c(NC(=O)NC4CCCCC4)cccc3C(=O)N([C@H](C)CO)C[C@@H]2C)cc1
-0.2	COc1cc(C(=O)N2CCC2(C)C(=O)O)cc(OC)c1OC (stereo not given)
2.0	C[C@H]1CN([C@@H](C)CO)C(=O)c2cccc(NC(=O)Nc3ccc(C(F)(F)F)cc3)c2O[C@H]1CN(C)C(=O)NC1CCCCC1
3.3	CN1c2ccc(-c3ccccc3)cc2[C@H]2[C@H](CCN2C(=O)CN2CCOCC2)[C@@H]1CO
3.3	CC(=O)N1[C@@H](CO)[C@@H]2c3ccccc3N(S(=O)(=O)c3ccccc3C)C[C@@H]21
-1.9	COc1ccc(S(=O)(=O)Nc2ccc3c(c2)C(=O)N([C@H](C)CO)C[C@@H](C)[C@@H](CN(C)C(=O)CCC(F)(F)F)OCCCC[C@H](C)O3)cc1
-0.7	CNC(=O)c1ccsc1NC(=O)CS(=O)(=O)c1ccc(F)cc1
-0.6	COc1ccc(NC(=O)Nc2ccc3c(c2)C(=O)N([C@H](C)CO)C[C@H](C)[C@H](CN(C)C(=O)Nc2cccc4ccccc24)OCCCC[C@@H](C)O3)cc1
-5.6	CNC(=O)C[C@H]1CC[C@H]2[C@@H](COc3ccc(NC(=O)Nc4cccc(C#N)c4)cc3C(=O)N2C)O1
-3.0	CN(C)C(=O)c1cccc(-c2ccc3c(c2)[C@H]2[C@H](CCN2C(=O)c2ccncc2)[C@H](CO)N3C)c1
3.1	C[C@H]1CN([C@@H](C)CO)C(=O)c2cc(NC(=O)Nc3cccc4ccccc34)ccc2O[C@@H]1CN(C)S(=O)(=O)c1ccccc1
-1.0	COc1cccc(S(=O)(=O)Nc2ccc3c(c2)C(=O)N(C)C[C@H](OC)[C@@H](C)CN(C(=O)Cc2cccnc2)[C@@H](C)CO3)c1
-3.2	O=C(NCC[C@@H]1CC[C@@H](NC(=O)C2CCC2)[C@@H](CO)O1)c1ccc(F)cc1
7.6	O=C(Nc1ccc2c(c1)[C@H]1C[C@H](CC(=O)N3CCCCC3)O[C@H](CO)[C@H]1O2)Nc1ccccc1F
0.4	CON(C)S(=O)(=O)c1cccc(C(=O)Nc2cccc(S(=O)(=O)NC3=NCCCCC3)c2)c1
-1.8	C[C@H]1CN([C@@H](C)CO)C(=O)c2cc(-c3ccccc3)cnc2O[C@@H]1CN(C)C(=O)C1CCOCC1
-0.1	O=C(C[C@@H]1CC[C@H](NC(=O)c2ccncc2)[C@@H](CO)O1)Nc1ccccc1
11	Cc1ccccc1S(=O)(=O)N(C)C[C@@H]1OCc2ccccc2-c2ccccc2C(=O)N([C@@H](C)CO)C[C@H]1C
6.5	O=C(C1CC1)N1CCCCN2[C@H](CO)[C@H](c3ccc(C#CC4CCCC4)cc3)[C@H]2C1
-0.8	CCNC(=O)C1(C)CCN(C(=O)c2ccccc2OC(F)(F)F)C1 (stereo not given)
0.6	C/C=C/c1ccc2c(c1)O[C@H](CN(C)C(=O)c1ccccc1F)[C@H](C)CN([C@@H](C)CO)S2(=O)=O
-14	C[C@@H]1CCCCO[C@H](CN(C)S(=O)(=O)c2cn(C)cn2)[C@H](C)CN([C@@H](C)CO)C(=O)c2cc(NS(=O)(=O)c3cn(C)cn3)ccc2O1

6 entries already listed, arranged by length of the SMILES, lowest first.
AF4-AF9 inh	SMILES
-0.1	O=C(C[C@@H]1CC[C@H](NC(=O)c2ccncc2)[C@@H](CO)O1)Nc1ccccc1
0.4	CON(C)S(=O)(=O)c1cccc(C(=O)Nc2cccc(S(=O)(=O)NC3=NCCCCC3)c2)c1
-1.8	C[C@H]1CN([C@@H](C)CO)C(=O)c2cc(-c3ccccc3)cnc2O[C@@H]1CN(C)C(=O)C1CCOCC1
-3.0	CN(C)C(=O)c1cccc(-c2ccc3c(c2)[C@H]2[C@H](CCN2C(=O)c2ccncc2)[C@H](CO)N3C)c1
11	Cc1ccccc1S(=O)(=O)N(C)C[C@@H]1OCc2ccccc2-c2ccccc2C(=O)N([C@@H](C)CO)C[C@H]1C
-14	C[C@@H]1CCCCO[C@H](CN(C)S(=O)(=O)c2cn(C)cn2)[C@H](C)CN([C@@H](C)CO)C(=O)c2cc(NS(=O)(=O)c3cn(C)cn3)ccc2O1

Remaining list, next part.
AF4-AF9 inh	SMILES
-2.4	C[C@@H]1CN([C@H](C)CO)C(=O)c2cc(NC(=O)C3CCCCC3)ccc2O[C@@H]1CN(C)C
0.6	C[C@H](CO)N1C[C@H](C)[C@H](CN(C)S(=O)(=O)c2cccc(F)c2)Oc2ncc(-c3cccc(C(F)(F)F)c3)cc2C1=O
-36	CCCC(=O)Nc1ccc2c(c1)OC[C@H](C)N(C(=O)c1ccccn1)C[C@@H](C)[C@H](OC)CN(C)C2=O
2.4	CO[C@@H]1CN(C)C(=O)c2cc(NC(=O)Nc3ccccc3Cl)ccc2OC[C@@H](C)N(S(=O)(=O)CC(F)(F)F)C[C@H]1C
0.0	O=C(C[C@@H]1CC[C@H]2[C@@H](COC[C@H](O)CN2C(=O)Nc2cccc(Cl)c2)O1)NCc1ccccc1F
-10	C[C@H]1CCCCO[C@H](CN(C)Cc2ccccc2)[C@@H](C)CN([C@@H](C)CO)C(=O)c2cc(NS(=O)(=O)c3cn(C)cn3)ccc2O1
-3.2	CC(=O)N(C[C@@H]1[C@@H](c2ccc(C3=CCCC3)cc2)[C@@H](CO)N1CC1CC1)C(C)C
3.8	OC[C@@H]1[C@H](c2ccc(Br)cc2)[C@@H]2CNCCCCN12
-0.5	CO[C@@H]1CN(C)C(=O)c2cc(NC(=O)Nc3c(C)noc3C)ccc2OC[C@H](C)N(CC2CC2)C[C@@H]1C
-3.2	CCCCNC(=O)C1c2ccccc2OCC(=O)N1Cc1ccc2c(c1)OCO2 (stereo not given)
0.1	C[C@H]1CN([C@@H](C)CO)C(=O)c2cccc(NC(=O)c3ccc(-c4nccs4)cc3)c2O[C@H]1CN(C)S(=O)(=O)c1ccc(Cl)cc1
5.1	CN(C)C(=O)c1ccc(-c2ccc([C@H]3[C@@H](CO)N4CCCCN(CC5CC5)C[C@H]34)cc2)cc1
-3.7	COc1ccc(NC(=O)N(C)C[C@H]2OCCCC[C@@H](C)Oc3ccc(NS(C)(=O)=O)cc3C(=O)N([C@H](C)CO)C[C@@H]2C)cc1
-2.6	COC(=O)c1ccc(CSc2nc3c(c(=O)[nH]2)CCC3)cc1
-1.2	CC(=O)N1C[C@H]2[C@@H](c3ccccc31)[C@H](CO)N2C(=O)Nc1ccc(F)cc1
-1.1	COc1ccc(S(=O)(=O)N(C)C[C@H]2Oc3ccc(NS(=O)(=O)c4c(C)noc4C)cc3CC(=O)N([C@H](C)CO)C[C@@H]2C)cc1
-3.8	CCNC(=O)Nc1ccc2c(c1)C(=O)N(C)[C@@H]1CC[C@@H](CC(=O)N[C@@H](C)c3ccccc3)O[C@H]1CO2
3.0	C[C@H](CO)N1C[C@H](C)[C@@H](CN(C)S(=O)(=O)c2ccc(Cl)cc2)OCCCC[C@H](C)Oc2ccc(NS(=O)(=O)c3cccs3)cc2C1=O
0.9	COc1cccc(CNC(=O)C[C@H]2CC[C@@H](NC(=O)C3CCOCC3)[C@H](CO)O2)c1
-2.6	O=C(Nc1ccccc1F)N[C@H]1CC[C@@H](CCNS(=O)(=O)c2ccccc2)O[C@H]1CO
-5.7	C[C@H](CO)N1C[C@H](C)[C@H](CN(C)Cc2ccc(C(F)(F)F)cc2)Oc2ccc(NC(=O)CCC(F)(F)F)cc2C1=O
3.2	C[C@@H]1CN([C@@H](C)CO)S(=O)(=O)c2ccc(C#CC3CC3)cc2O[C@@H]1CN(C)Cc1ccccc1F
-2.3	Cc1ccc(S(=O)(=O)Nc2ccc3c(c2)C(=O)N([C@@H](C)CO)C[C@@H](C)[C@@H](CN(C)Cc2ccc(C(F)(F)F)cc2)OCCCC[C@H](C)O3)cc1
-3.0	C[C@@H]1CN([C@@H](C)CO)C(=O)Cc2cc(NC(=O)c3ccncc3)ccc2O[C@H]1CN(C)S(=O)(=O)c1ccccc1
-2.7	CO[C@H](CN(C)S(=O)(=O)c1ccc(Cl)cc1)[C@@H](C)CN([C@H](C)CO)S(=O)(=O)c1cccc(Cl)c1
8.6	CC(C)CC#Cc1ccc2c(c1)O[C@H](CN(C)Cc1cccnc1)[C@H](C)CN([C@H](C)CO)S2(=O)=O
0.8	NC(=O)c1cccc(-c2coc3c(C(=O)NCc4ccccc4)cccc23)c1
2.6	CCCC#Cc1ccc([C@@H]2[C@@H](CO)N3CCCCN(Cc4cncnc4)C[C@@H]23)cc1
-1.4	C[C@H]1CN([C@@H](C)CO)C(=O)c2cc(C#CCN(C)C)cnc2O[C@@H]1CN(C)C(=O)c1ccc(F)cc1
0.6	C[C@@H]1CN([C@H](C)CO)C(=O)c2cc(NC(=O)c3ccncc3)ccc2O[C@@H](C)CCCCO[C@H]1CN(C)C(=O)Nc1ccc(C(F)(F)F)cc1
-0.4	CCCNC(=O)C[C@H]1CC[C@H]2[C@@H](COC[C@H](O)CN2C(=O)Nc2ccccc2OC)O1
6.9	CN1CCN(c2cc(-c3ccc4ccccc4c3)nc3ccnn23)CC1
-0.1	C[C@H](CO)N1C[C@H](C)[C@H](CN(C)C)Oc2ccc(NS(C)(=O)=O)cc2C1=O
-9.3	C[C@@H]1CN([C@@H](C)CO)C(=O)c2cc(C#CCc3ccccc3)cnc2O[C@H]1CN(C)C(=O)C1CC1
2.3	O=C(c1ccc2c(c1)OCO2)N1C[C@@H]2[C@H](c3ccccc31)[C@@H](CO)N2Cc1ccc2c(c1)OCO2
-0.3&2.1	O=C(C[C@@H]1CC[C@@H]2[C@H](COC[C@@H](O)CN2Cc2cc(F)ccc2F)O1)NCc1ccc(F)cc1
3.8	CC(C)(C)OC(=O)Nc1ccccc1-n1nnnc1C(C(=O)c1ccccc1)N1CCN(c2ccccn2)CC1 (stereo not given)
5.3	COc1cccc(C(NC(C)=O)c2nc(-c3ccc(F)c(Cl)c3)cs2)c1 (stereo not given)
-0.5	CCS(=O)(=O)N[C@@H]1C=C[C@H](CC(=O)NCc2ccc(Cl)cc2)O[C@H]1CO
-2.1	CO[C@H]1CN(C)C(=O)c2cc(NS(=O)(=O)CC(F)(F)F)ccc2OC[C@@H](C)N(Cc2cccnc2)C[C@@H]1C
?	CCC(=O)Nc1ccc2c(c1)C(=O)N(C)C[C@H](OC)[C@H](C)CN(C(=O)c1ccccn1)[C@@H](C)CO2
0.5	C[C@@H]1CN([C@@H](C)CO)S(=O)(=O)c2ccc(C#CCN(C)C)cc2O[C@@H]1CN(C)Cc1ccccn1
-0.9	COCC(=O)N(C)C[C@@H]1Oc2cc(-c3ccccc3F)ccc2S(=O)(=O)N([C@H](C)CO)C[C@@H]1C
-0.2	O=C(C[C@@H]1CC[C@@H](NC(=O)C2CC2)[C@H](CO)O1)NC1CCC1
-0.5	CO[C@H]1CN(C)C(=O)c2ccc(NC(C)=O)cc2OC[C@H](C)N(Cc2ccccc2C(=O)O)C[C@H]1C
-4.2	O=C(Nc1ccc(Cl)cc1)c1ccc2sc([C@@H]3O[C@H](CO)[C@@H](O)[C@H]3O)nc2c1
1.7	C[C@@H]1CCCCO[C@H](CN(C)C(=O)Nc2ccccc2)[C@H](C)CN([C@H](C)CO)C(=O)c2cc(NS(=O)(=O)c3cn(C)cn3)ccc2O1
0.7	Cc1noc(C)c1S(=O)(=O)Nc1ccc2c(c1)C(=O)N([C@@H](C)CO)C[C@@H](C)[C@@H](CN(C)C(=O)C1CCCCC1)OCCCC[C@@H](C)O2
0.6	C[C@H](CO)N1C[C@H](C)[C@@H](CN(C)CC2CC2)Oc2ccc(NS(=O)(=O)c3ccc(F)cc3)cc2C1=O
-0.3	CCCNC(=O)N(C)C[C@H]1Oc2ncc(-c3ccccc3)cc2C(=O)N([C@@H](C)CO)C[C@H]1C
1.8	O=C(COC(=O)c1ccccc1OC(F)F)Nc1ccc(N2CCCCC2)cc1
-1.3	CO[C@@H]1CN(C)C(=O)c2ccc(NC(=O)C3CC3)cc2OC[C@@H](C)N(Cc2ccccc2)C[C@@H]1C
-1.7	O=C(C[C@H]1CC[C@@H]2[C@H](COC[C@H](O)CN2Cc2cc(F)cc(F)c2)O1)NCc1cccc(F)c1
-2.3	Cn1cccc1C(=O)NC1CCCCCC1

Molecules listed so far with a cyano group (2):
AF4-AF9 inh	SMILES
-1.9	N#Cc1ccc(Nc2nc(-c3ccccc3)cs2)cc1
-5.6	CNC(=O)C[C@H]1CC[C@H]2[C@@H](COc3ccc(NC(=O)Nc4cccc(C#N)c4)cc3C(=O)N2C)O1
